VDR inh: inhibitors of human vitamin D receptor; P11473; VDR-SRC2-3 peptide fluorescence polarization, 2 h; Potency, µM, for inactives: max response, negative = inhibition, most hits filed as inhibitors; 400,000 tested, 0.93% active; AID 504847; active means well fitted inhibition curve with a large enough effect; inconclusive means small, poorly fitted or top-dose-only effect, or another doubt; inactive means no such curve, though single readings can be large or run the other way; further: series mostly up to about 120 µM
Target sequence (P11473 whole entry, looked up): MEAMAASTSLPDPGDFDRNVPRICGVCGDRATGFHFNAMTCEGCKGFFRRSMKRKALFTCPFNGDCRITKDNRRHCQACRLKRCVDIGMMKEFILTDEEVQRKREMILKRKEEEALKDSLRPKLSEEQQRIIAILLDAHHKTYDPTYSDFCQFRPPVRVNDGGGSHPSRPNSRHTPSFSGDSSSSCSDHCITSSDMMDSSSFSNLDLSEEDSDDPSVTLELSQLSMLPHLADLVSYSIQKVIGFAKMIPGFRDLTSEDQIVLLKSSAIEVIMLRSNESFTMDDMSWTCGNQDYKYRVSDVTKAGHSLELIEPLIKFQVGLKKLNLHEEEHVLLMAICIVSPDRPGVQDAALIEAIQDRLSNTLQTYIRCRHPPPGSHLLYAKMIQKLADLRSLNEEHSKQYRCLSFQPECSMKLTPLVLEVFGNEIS
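Reagent solutions, kept cold and dark, are dispensed first; compounds are then pinned in at 23 nl, plates briefly spun, and incubated 2 h at ambient temperature. Inhibition of VDR–SRC2-3 peptide binding is read by fluorescence polarization.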
Numbers without * were called inactive; ? = inconclusive; & = joins results of further samples. On the % scale 0 is the no-effect control and ±100 the full control effect; potency means the concentration at half of the fitted maximal effect. These rows are one share of the data, so the mix of outcomes need not match the whole.

SMILES | VDR inh
CC(=O)Nc1ccc(S(=O)(=O)NCCSCc2cccc(Cl)c2)cc1 | -11%
Cc1ccc(C(=O)NCc2ccc3c(c2)OCO3)cc1N1CCCC1=O | -6%
COc1ccc(-c2nc3cnc(N4CCOCC4)nc3n(CCC#N)c2=O)cc1 | -3%
Cc1cccc(OCCSc2nnc(-c3cccs3)o2)c1 | -6%
O=C(NCCN1CCN(c2ccccc2)CC1)Nc1cccc(Cl)c1 | -19%
O=[N+]([O-])c1ccc(S(=O)(=O)NN=CCCc2ccccc2)cc1 | -23%
COc1ccc(N2CCN(C(=O)c3cc([N+](=O)[O-])ccc3N3CCN(CCO)CC3)CC2)cc1 | -8%
CCc1cccc(CC)c1NC(=O)CNCc1cccs1 | 0%
NC1=NCC(O)=C1c1nc2ccccc2[nH]1 | -7%
Cc1ccc(NC(=O)c2cc(=O)c3ccccc3o2)cc1 | 17%
Cc1ccc(-c2cc(C(=O)Nc3ccc(S(=O)(=O)Nc4nc(C)cc(C)n4)cc3)c3ccccc3n2)cc1 | 13%
Cc1cc([N+](=O)[O-])c(-c2ccc(/C=N/n3cnnc3)o2)cc1Cl | 17%
C[C@H]1CCC[C@]2(O[C@@H](CCO)C[C@H](O)[C@H]2O)O1 | 2%
COCCn1c(N)c(N(Cc2ccccc2)C(=O)Cc2c(Cl)cccc2Cl)c(=O)[nH]c1=O | 0%
COc1cc(C(=O)NCC(c2cccnc2)N2CCN(c3ccc(F)cc3)CC2)cc(OC)c1OC (stereo not drawn) | -10%&-5%
O=C(O)c1ccccc1C(=O)N(c1ccccc1)c1ccccc1 | -13%
Cn1c(SCc2ccccc2Cl)nc2c([nH]c3ccccc32)c1=O | 17%
O=C(CO/N=C/c1ccccc1Cl)N1CCCc2ccccc21 | 6%
Cc1[nH]nc2c1C1(CCN(Cc3ccccc3)CC1)C(C#N)=C(N)O2 | -13%
Cc1cc(C)nc(SCc2ccc(C(=O)N/N=C3\CC(C)CC(C)(C)C3)cc2)n1 (stereo not drawn) | 3%
COc1cc(C2CC(=O)Oc3cc(C)c(Cl)c(C)c32)cc(OC)c1OC (stereo not drawn) | -13%
Cc1ccc(-n2nc(C(=O)c3ccccc3)n3c(=O)c(Cc4ccccc4)nnc23)cc1 | -20%
COc1ccc(S(=O)(=O)Nc2ccc(-n3cccc3)cc2)cc1 | -7%
COc1ccc(/C=C/C(=O)N2CCN(c3ccccn3)CC2)c(OC)c1OC | -11%
Cc1occc1-c1nnc(SCC(=O)Nc2nc3ccccc3s2)o1 | 12%
CCCn1c(-c2ccccc2)nc2c(=O)n(C)c(=O)[nH]c21 | -3%
COc1c(Cl)cc(Cl)cc1C(=O)Nc1ccc(CN2CCCCC2)cc1 | 2%
CCOC(=O)Cc1csc(N/N=C/c2ccccc2)n1 | 25%
O=C(O)CCC(C(=O)O)n1c(O)c(C2=c3ccccc3=NC2=O)sc1=S (stereo not drawn) | -16%
CCCOc1ccccc1C(=O)NC(CO)C(=O)O (stereo not drawn) | -9%
c1ccc(OCCSc2nc3ccccc3[nH]2)cc1 | 11%
CC1Cc2nc(SCC(=O)NCC3CCCO3)n(-c3ccc(F)cc3)c(=O)c2S1 (stereo not drawn) | -1%
O=C(NC1CCCc2ccccc21)C1CCN(c2nnc(-n3cccc3)s2)CC1 (stereo not drawn) | ?
CCC(C)n1c(SC(C)C#N)nc2ccccc2c1=O (stereo not drawn) | -6%
Cc1ccc(C)c(NC(=O)COC(=O)c2nc(Cl)ccc2Cl)c1 | ?
O=C(CSc1nnnn1-c1cccc2c1CCCC2)NC1CCCC1 | 26%
CC(/C=C/c1ccc2c(c1)OCO2)=N/NC(=O)CNc1ccc(C)cc1 | 11%
COc1ccc(C)cc1NC(=O)CCNS(=O)(=O)c1cccc2nonc12 | 19%&1%
Cc1ccccc1NC(=S)N(C)C1(c2ccccc2Cl)CCCCC1=O (stereo not drawn) | 2%
CC(Sc1n[nH]c(N)n1)C(=O)Nc1ccc(Cl)cn1 (stereo not drawn) | -25%
CCCCn1c(N)c(N(CC(C)C)C(=O)c2cccc(S(=O)(=O)N3CCCCCC3)c2)c(=O)[nH]c1=O | 24%
CCOc1ccc(-c2noc(CSc3nnc(-c4ccccc4)n3-c3ccccc3)n2)cc1 | 0%
Cc1cccc(OCc2nc(-c3ccc(Br)o3)no2)c1 | -4%
O=C(COc1ccccc1)Nc1ccccc1N1CCN(c2ccc(F)cc2)CC1 | -12%
CC(C)CN(C(=O)CSc1nncn1-c1ccccc1)c1c(N)n(CC(C)C)c(=O)[nH]c1=O | -9%
CCOc1ccc(S(=O)(=O)N2CCOCC2)cc1NC(=O)c1ccccc1F | -30%
Cc1cccc(C(=O)Nc2ccccc2N2CCN(c3ccc(F)cc3)CC2)c1 | 7%
Cc1cccc(C)c1NS(=O)(=O)c1ccc2c(c1)C(=O)c1ccccc1C2=O | -2%
CCOC(=O)c1ccc2nc(C)c(CC)c(Cl)c2c1 | -10%
CCCc1nn(C)c2c(=O)[nH]c(-c3cc(S(N)(=O)=O)ccc3OCC)nc12 | 11%
Cn1c(C(O)c2ccccc2)nc(Cl)c1Cl (stereo not drawn) | 5%
CCOc1ccc(S(=O)(=O)Nc2cccc(C(=O)NCC(c3ccco3)N(C)C)c2)cc1 (stereo not drawn) | -19%
COC(=O)C(C)Sc1nc2c([nH]c3ccccc32)c(=O)n1C (stereo not drawn) | 3%
CCOCCCN1CN(Cc2ccco2)CNC1=S | 3%
COc1cccc(-c2ncc3ccccc3c2COC(=O)c2cccc(Br)c2)c1 | -15%
COC(=O)CCCC1=CC2=CC(=O)C(C)(OC(=O)c3cccs3)C(=O)C2=CN1c1ccc(OC)cc1 (stereo not drawn) | -12%
COc1cc(OC)cc(C(=O)N[C@H](C(=O)OCC(N)=O)C(C)C)c1 | -10%
COc1ccc(C(=O)Nc2cccc3c2C(=O)NC3=O)cc1S(=O)(=O)N1CCOCC1 | -6%
CCN(CC)CCOC(=O)c1ccc(NC(=O)C2(c3ccccc3)CCCC2)cc1 | 0%
CNc1nc(-c2ccccc2)cc(C)c1S(C)(=O)=O | -7%

Filtered by structure: the compounds so far with a thiophene ring, fused or not (3)
SMILES | VDR inh
Cc1cccc(OCCSc2nnc(-c3cccs3)o2)c1 | -6%
CCc1cccc(CC)c1NC(=O)CNCc1cccs1 | 0%
COC(=O)CCCC1=CC2=CC(=O)C(C)(OC(=O)c3cccs3)C(=O)C2=CN1c1ccc(OC)cc1 (stereo not drawn) | -12%

Of the compounds above, two have bromine:
SMILES | VDR inh
Cc1cccc(OCc2nc(-c3ccc(Br)o3)no2)c1 | -4%
COc1cccc(-c2ncc3ccccc3c2COC(=O)c2cccc(Br)c2)c1 | -15%

4 of the entries above in order of the VDR inh value, highest first:
SMILES | VDR inh
Cc1cc([N+](=O)[O-])c(-c2ccc(/C=N/n3cnnc3)o2)cc1Cl | 17%
CC(/C=C/c1ccc2c(c1)OCO2)=N/NC(=O)CNc1ccc(C)cc1 | 11%
Cc1ccc(C(=O)NCc2ccc3c(c2)OCO3)cc1N1CCCC1=O | -6%
COc1cccc(-c2ncc3ccccc3c2COC(=O)c2cccc(Br)c2)c1 | -15%

(list continues)
SMILES | VDR inh
COc1ccc(C(=O)Nc2ccc(NC(C)=O)cc2)cc1S(=O)(=O)N(C)Cc1ccccc1 | -4%
CCn1c(SCC(=O)NCc2cccs2)nc2c1c(=O)n(C)c(=O)n2C | 9%
COc1cccc(CNC(=O)c2cccc(NC3=NC4CS(=O)(=O)CC4S3)c2)c1 (stereo not drawn) | 6%
CSc1cccc(NC(=O)CSc2nc3ccccc3o2)c1 | 3%
COc1cc(NC(=O)c2sc3nc(C)nc(N4CCOCC4)c3c2C)cc(OC)c1OC | 5%
N=C1C(c2ccccc2)=C(O)CN1CCCO | -7%
CCOc1ccc(C2=Nn3c(nnc3-c3ccccn3)SC2)cc1 | 15%
CCN(CC)CCN1C(=O)Cn2c(C)c(C)c3cccc1c32 | 5%&18%
COc1ccccc1CNC(=O)Cc1c(C)c2c(cc(C)c3c(C)coc32)oc1=O | 5%
O=C(C1CCCO1)N(c1ccc(F)cc1)C1C=CS(=O)(=O)C1 (stereo not drawn) | -14%
COC(=O)c1cc2occc2n1Cc1ccc(F)cc1Cl | -15%
COc1ccc(CN(C)CC(=O)NC(=O)Nc2ccccc2F)cc1 | 7%
Cc1ccc(C)c(OCC(=O)NCC(c2ccco2)N2CCCCC2)c1 (stereo not drawn) | -11%
Cc1sc2ncn(CC(=O)Nc3cccc(S(N)(=O)=O)c3)c(=O)c2c1-c1ccccc1 | -17%
CC(=O)c1nn(-c2ccc(OC(F)(F)F)cc2)nc1Nc1ccc(C)cc1 | 3%
Cc1ccc(S(=O)(=O)CCC(=O)Nc2nccs2)cc1 | 1%
CC(C)NC(=O)NC(=O)CSc1ccc(S(=O)(=O)N2CCOCC2)cn1 | 5%
O=C(C1COc2ccccc2O1)N1CCOCC1 (stereo not drawn) | 16%
OC(c1cc(C(F)(F)F)nc2c(C(F)(F)F)cccc12)C1CCCCN1 (stereo not drawn) | -5%&-14%
COc1ccc(N2CCN(C3CCCN(C(=O)C4=C(C)OCCO4)C3)CC2)cc1 (stereo not drawn) | 7%
Cn1ncc2c(N3CCN(c4ccccc4Cl)CC3)ncnc21 | 15%
COCCNC(=O)Cn1nc(-c2ccccc2OC)ccc1=O | 4%
CCc1sc(-c2cc3ccccc3oc2=O)nc1-c1ccc(C)cc1 | -19%
O=C(Nc1cccc2c1CCCC2)N1CCOc2ccc(Cl)cc21 | -3%
CC(=O)N1c2ccccc2C(=O)C1N1CCN(c2ccccc2F)CC1 (stereo not drawn) | 11%
CCn1cc(C(=O)OCc2ccc(F)cc2)c(=O)c2ccc(C)nc21 | 5%
CC(=O)c1ccc(NC(=O)c2ccc3nc(-c4ccco4)c(-c4ccco4)nc3c2)cc1 | ?
COc1cccc([C@@H]2Oc3ccc(OC)cc3C(=O)[C@H]2OC(=O)NS(=O)(=O)c2ccc(F)cc2)c1 | -4%
c1ccc(-c2noc(-c3cccnc3NCc3ccco3)n2)cc1 | 4%
COc1cc2c(C(=O)NCc3ccc(C)o3)cn(CC(C)C)c(=O)c2cc1OC | 12%
Cc1cc2c(Nc3ccc(C(=O)O)cc3)ncnc2s1 | 20%
CCCCC(Sc1nc(C)c(Cc2ccccc2)c(=O)[nH]1)C(=O)O (stereo not drawn) | -2%
N#Cc1ccc(-c2ccc(OCC(=O)NCCCN3CCCC3=O)cc2)cc1 | -11%
COc1ccc(C(=O)N2CCCCCC2)cc1OC1CCN(C(C)=O)CC1 | 2%
Cc1cccc(-c2nc(N3CCN(c4ccc(F)cc4)CC3)c3ccccc3n2)c1 | 1%
Cc1cc(C)n(-c2ccc(C(=O)Nc3cccnc3Cl)cc2)n1 | -12%
Nc1nc(Cl)cc(-c2ccccc2)n1 | -7%
O=C1N/C(=N\N=C\c2cccs2)SC1Cc1ccc(Cl)c(Cl)c1 (stereo not drawn) | 3%
CCC1CCCCN1C(=O)CCNS(=O)(=O)c1ccc2c(c1)oc(=O)n2C (stereo not drawn) | 21%
O=C(O)c1ccccc1/C=N/n1c(C2CCCCC2)n[nH]c1=S | ?

Taken from above.
c1ccc(-c2noc(-c3cccnc3NCc3ccco3)n2)cc1 in VDR inh reads 4%
Cc1cccc(-c2nc(N3CCN(c4ccc(F)cc4)CC3)c3ccccc3n2)c1 in VDR inh reads 1%
Cn1ncc2c(N3CCN(c4ccccc4Cl)CC3)ncnc21 in VDR inh reads 15%
N#Cc1ccc(-c2ccc(OCC(=O)NCCCN3CCCC3=O)cc2)cc1 in VDR inh reads -11%

Next part.
SMILES | VDR inh
CCCc1cc(=O)[nH]c(SCC(=O)NC(=O)OCC)n1 | 5%
S=C(NCc1ccco1)Nc1ccc(Oc2ccccc2)cc1 | -14%
CC1(c2ccccc2)NC(=O)N(CC(=O)N2CCN(S(=O)(=O)c3cccs3)CC2)C1=O (stereo not drawn) | -5%
COc1cccc(Nc2nc(NCC3CCCO3)c3ccccc3n2)c1 (stereo not drawn) | -15%
COc1ccc(N2CCN(C(=O)CN(Cc3ccc(Cl)cc3)S(C)(=O)=O)CC2)cc1 | -3%
Cc1c(NS(=O)(=O)c2cc(Br)cc3c2N(C(=O)C2CC2)CC3)c(=O)n(-c2ccccc2)n1C | 14%
CCn1c2ccccc2c2cc(NC(=O)c3cc(OC)cc(OC)c3)ccc21 | 6%
COc1ccc(C2SCC(=O)N2CCc2ccc(OC)c(OC)c2)cc1 (stereo not drawn) | 3%
Cn1c(-c2csc(-c3cccc(C(F)(F)F)c3)n2)n[nH]c1=S | -1%
CCc1c(C)nc2ncnn2c1NCc1cccs1 | -2%
O=C(Nc1ccc2nsnc2c1)N1CCCCCC1 | -2%
C/C(=N\NC(=O)c1c(C)nc2ccccn12)c1cccc([N+](=O)[O-])c1 | 15%
O=C(CSc1ccc2ccccc2n1)N1CCC(c2noc3ccc(F)cc23)CC1 | 3%
CCC(=O)NCc1cc(-c2nn(C)c(=O)c3ccccc23)ccc1OC | -17%&-11%
COc1ccc(/C=N/OC/C(O)=C(\C#N)c2nc3ccccc3[nH]2)cc1 | -4%
Cn1c(=O)c2c(nc(Br)n2Cc2nnc(N)s2)n(C)c1=O | -9%
COc1ccccc1/C=C/C(=O)OCC(=O)NC1CCCCCC1 | -12%
CC(C)(C)n1ncc2c(=O)n(Cc3ccc(Cl)c(Cl)c3)cnc21 | -3%
COc1cc(/C=C2\SC(=O)N(c3ccc(Cl)cc3)C2=O)cc([N+](=O)[O-])c1O | -4%
CN(C)c1ccc(-c2ccc3ncnc(N4CCNCC4)c3c2)cc1 | -10%
CCOC(=O)/C(=N/Nc1ccccc1)N1CCCc2ccccc21 | -17%
O=C(Nc1ccccc1C(=O)Nc1ccccc1C(=O)NCc1ccco1)c1ccco1 | 8%

From PubChem
